# Source: PubChem BioAssay
# TAR Tat displ – HIV-1 TAR-Tat binding disruption. 100,000 compounds, 0.6% hits. HIV-1 TAR RNA, Tat peptide displacement FRET; stronger effect = higher value. z-score (test concentration not listed);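 further: score is relative to mean and SD of negative controls; some compounds called inactive have numbers as strong as hits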
# CDC25B CDK2 inh – human CDC25B-CDK2/CyclinA binding inhibition | z-score (no concentration beside the values) | P30305+P24941 | 94,000 compounds, 0.72% hits | HTRF CDC25B-CDK2/CyclinA binding, anti-His/anti-Flag; stronger effect = higher value;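 further: score is relative to mean and SD of negative controls; strong numbers were not always called active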
# * marks the source's active call; other numbers are inactive results; x = not tested or not shown.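 How the source made its calls: active means z-score from 3 up in half or more of its runs; inactive means the rest.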
Structure	CDC25B CDK2 inh	TAR Tat displ
Cc1noc(C)c1S(=O)(=O)N1CCCC1C(=O)NC1CCCCC1 (configuration not stated)	x	1.8
COc1ccc(NC(=O)c2cnc3sc(N4CCOCC4)nn3c2=O)cc1Cl	x	0.16
COc1ccc(C2CC(=O)c3cc(-c4nc(-c5ccc(F)cc5)cs4)c(=O)[nH]c3C2)cc1 (configuration not stated)	-1.1	-0.55
CCn1c(C)[n+](CC(O)COCC2CC=CCC2)c2ccccc21 (configuration not stated)	0.67	1.1
Cc1cc(N(C)CCO)n2nc(-c3ccccc3C)nc2n1	0.19	1.3
COC(=O)c1cccc(NS(=O)(=O)c2ccc(Cl)cc2)c1	-1.5	x
Cc1ccccc1N1C(=O)c2c(C)nc3ccccc3c2C1=O	0.99	1.2
COc1ccc(CCN2C(=O)/C(=C/c3ccc4c(c3)OCO4)SC2=S)cc1OC	-2.6	x
CCOC(=O)N1CCC2(CC1)OC(=O)C(C)=C2C(=O)NCCCOC	x	0.52
Cc1c(C(=O)NC2CCCC2)sc2nc3n(c(=O)c12)CCCCC3	x	1
O=S(=O)(N=S1CCN(S(=O)(=O)c2ccc(Cl)cc2)CC1)c1ccc(Cl)cc1	0.07	x
COc1ccc(CCn2c(C)c3c(C)nn4cc(-c5ccc(C)o5)cc4c3c2C)cc1OC	8	35*
CCOc1ccc(C2c3c(oc4ccccc4c3=O)C(=O)N2c2nncs2)cc1OC (configuration not stated)	-0.96	1.1
CCCCN(CCCC)S(=O)(=O)c1ccc2c(c1)CCCC(=O)N2	x	0.48
Clc1ccccc1OCc1nn2c(-c3ccccc3)nnc2s1	2.1	0.59
Cc1c(C(=O)C(=O)N2CCCc3ccccc32)c2ccccc2n1C	-0.79	-0.08
O=c1c(=O)n(-c2ccc(F)c(F)c2)ccn1Cc1ccc(F)cc1Cl	x	2.9
O=C(NCCCN1CCCC1)C1CCN(c2nn3c(=O)c4c(nc3s2)CCCC4)CC1	x	1.1
Cc1noc(/C=C/c2ccco2)c1S(=O)(=O)N1CCC(C(=O)NCc2ccco2)CC1	0.88	-2.5
Cc1noc(/C=C/N(C)C)c1S(=O)(=O)N1CCC(C(=O)N2CCCCC2)CC1	-1.2	-0.2
NS(=O)(=O)c1ccc(CCNc2ncnc3c2c(-c2ccccc2)cn3-c2ccc(F)cc2)cc1	x	-1.1
N#CC1=C2SCN(Cc3ccco3)CN2C(=O)CC1c1ccc(OCc2ccccc2)cc1 (configuration not stated)	-1.8	0.22
CCN1CCN(C(=O)CN2C(=O)c3ccccc3Sc3ncccc32)CC1	x	-0.09
Cc1cc(NCc2ccco2)n2nc(Cc3cccc(F)c3)nc2n1	x	1.1
CCN1CCN(c2cc(NCCOC)c3c4c(onc24)-c2ccccc2C3=O)CC1	-3.4	-0.24
CCOC(=O)C1CCN(C(=O)c2cc([N+](=O)[O-])ccc2Oc2ccc(OC)cc2)CC1	-0.37	x
O=C1CC(c2ccco2)CC2=C1C(c1cccnc1)n1c(nc3ccccc31)N2 (configuration not stated)	-1.3	-7.2
CCc1nn2c(=O)cc(CSc3nnc(-c4ccccc4Cl)o3)nc2s1	-1.3	1.2
COCCN1C(=O)c2c(C(=O)OC)ncn2CC1(C)C(=O)NC1CCCCC1 (configuration not stated)	x	0.1
O=C(O)Cn1cc2c(n1)CCCC2	-0.63	2.2
Cc1nnc2ccc(NCc3ccc4c(c3)OCO4)nn12	-0.95	0.81
O=C(CSc1nnc(COc2ccc(Cl)cc2)o1)N1CCCC1	-0.35	1.4
CSc1ccc(C2=NN(C(C)=O)C(Cn3nnc4ccccc43)O2)cc1 (configuration not stated)	x	1.9
CCOC(=O)Oc1ccc2c(=O)c(-c3ccccc3OC)c(C(F)(F)F)oc2c1	1.4	0.36
Cc1cc(C(=O)NC2CCN(Cc3c(F)cccc3Cl)CC2)nn1-c1ccccc1	-2.1	x
CN(C)S(=O)(=O)c1ccc(C(=O)OCCN=C2NS(=O)(=O)c3ccccc32)cc1	0.13	-0.68
CC1Cc2cc(S(=O)(=O)CCC(=O)NC3CCCCC3)ccc2N1C(=O)C1CC1 (configuration not stated)	x	0.32
COc1ccc(-c2csc3ncnc(NCc4ccccc4OC)c23)cc1	x	1.7
COCCn1c(C2CC(=O)N(c3ccc(F)cc3)C2)nc2ccccc21 (configuration not stated)	-0.13	1.2
CCC(=O)N1c2ccc(S(=O)(=O)N3CCC(C)CC3)cc2CC1C (configuration not stated)	x	2.2
CNC(=O)CSc1nc2c(cnn2-c2ccc(Cl)cc2)c(=O)[nH]1	x	1.3
Cn1c(=O)c2c(-c3cccc(Br)c3)n(-c3ccc(O)cc3)cc2n(C)c1=O	-1.8	1.9
OCCCNc1ncnc2c1c(-c1ccccc1)cn2-c1ccc(Cl)cc1	-3.8	x
Cc1ccc(-c2nnc3c4c5c(sc4ncn23)CCCC5)cc1	-2.2	-0.4
Cc1ccc2oc(=O)c3cnn(CC(=O)N(CCN(C)C)Cc4ccco4)c3c2c1	-1.7	-0.42
CCC(=O)N1CCc2cc(Br)cc(S(=O)(=O)N3CCc4ccccc4C3)c21	-0.93	x
COc1ccc2c(c1)CC(NC(=O)NCCCN1CCN(C)CC1)CO2 (configuration not stated)	x	1.2
Cc1ccc(Nc2c(-c3cccnc3)nc3ccc(Cl)cn23)cc1	-2.2	x
O=C(c1cc2sccc2n1Cc1ccc(Cl)cc1)N1CCC(C(=O)N2CCCC2)CC1	-0.79	x
CC1=C(c2cccc(Cl)c2)S(=O)(=O)NC1=NCCCN1CCOCC1	-0.35	1.8
c1ccc(Cc2nc3c4c5c(sc4ncn3n2)CCCCC5)cc1	-0.28	0.61
Cc1cc(C)cc(NC(=O)Nc2c(C)nc3nc[nH]n3c2=O)c1	-0.91	0.79
CSc1sc(-c2nc(C)cs2)c(C)c1-c1ccnc(=S)[nH]1	-2.8	x
COCCOC(=O)c1c(C)oc2ccc(NS(=O)(=O)c3cc(Cl)ccc3Cl)cc12	-0.32	x
CCOC(=O)C(NC(=O)c1ccccc1)(Nc1ccc(F)cc1F)C(F)(F)F (configuration not stated)	-0.94	x
Cc1cc(C)n2nc(SCC(=O)N3CCN(c4ccccn4)CC3)nc2n1	0.1	x
CCOC(=O)c1sc2cccc(F)c2c1S(=O)(=O)N1CCN(c2ccccn2)CC1	x	0.59
CCOC(=O)c1noc2ncnc(NCCc3ccco3)c12	x	0.24
O=C(Cn1ccc2cc(S(=O)(=O)N3CCCCC3)ccc21)NCc1ccco1	x	-0.77
Cc1oc2ncnc(N3CCC(C(=O)O)CC3)c2c1C	-1	1.4

# Other results follow.
Structure	CDC25B CDK2 inh	TAR Tat displ
O=C(NC1CCCCC1)c1ccc2c(c1)CC(c1ccccc1)OC2=O (configuration not stated)	-0.24	-0.66
Cc1cc(=O)nc2c3ccccc3n(CC(=O)N3CCN(C4CCCCC4)CC3)n12	-1.5	1.6
COc1ccc(OC)c(C2SCCN2S(=O)(=O)c2ccc3ccccc3c2)c1 (configuration not stated)	-2.4	0.56
CCCc1nn(C(=O)c2ccc(Cl)cc2)cc1C(=O)OCC	-2.6	x
O=c1c2cccnc2nc(SCc2cc(=O)n3ccccc3n2)n1-c1ccccc1	-1.2	-0.9
O=C(NC1CC1)C1CCN(c2ncnc3c2sc2cccc(F)c23)CC1	-0.29	0.32
COc1ccc(/C=C2\Cc3cc(OC)c(OC)c(OC)c3C2=O)c(OC)c1OC	-2.2	x
Cc1nn(-c2ccccc2)c(C)c1C(=O)NNC(=O)c1ccc(Cl)cc1	-0.28	x
CCc1ccc(OC(=O)CSc2nnc(-c3ccc4c(c3)OCO4)o2)cc1	-3.1	-1.7
COC(=O)CC1C(=O)NCCN1C(=O)Nc1ccc(Cl)cc1 (configuration not stated)	1.8	x
Cc1cc(C)n(-c2nc3ccccc3[nH]2)n1	-0.37	2.9
CCOC(=O)c1sc(NC(=O)c2nn(-c3ccc(Cl)cc3)ccc2=O)c(C(=O)OCC)c1C	-1.7	1.2
CSc1cccc(NC(=O)NCc2c(C)nn(-c3ccccc3)c2-n2cccc2)c1	x	-0.11
CCC1CN(S(=O)(=O)c2ccc(CN3C(=O)c4cccnc4C3=O)cc2)c2cc(Cl)ccc2O1 (configuration not stated)	x	-0.42
COC(=O)Nc1ccc(S(=O)(=O)N2CCCCC2C(=O)O)cc1 (configuration not stated)	-2.9	0.2
CCN(CCO)c1ncnc2onc(C)c12	x	-0.4
O=C(Cn1nc(C(F)(F)F)c2c1CCCC2)N1CCOCC1	1.7	x
Cc1ccc(-n2nc(-c3ccc(N)cc3)cc2N)cc1	-4.1	1.1
COc1ccc(-c2cc(C(=O)O)c3c(-c4ccccc4)[nH]nc3n2)c(OC)c1	x	2.2
COc1ccc(S(=O)(=O)c2cnc3ccc(C)cc3c2N)cc1	0.71	2.4
Cc1cc(=O)nc2c3ccccc3n(C(C)C(=O)NC3CCCC(C)C3C)n12 (configuration not stated)	-1.1	-2
O=C(Nc1ccc(N2C(=O)CCC2=O)cc1Cl)c1ccc(Cl)cc1Cl	-2.3	x
CCN(CC)C(=O)CSc1nnc2ccc3ccccc3n12	-0.13	0.82
CC(C)CCNC(=O)c1ccc(CNc2c(NC3CCCC3)c(=O)c2=O)cc1	-1.2	-0.32

# 4 entries picked at random from those above, as already listed:
Structure	CDC25B CDK2 inh	TAR Tat displ
COc1ccc(S(=O)(=O)c2cnc3ccc(C)cc3c2N)cc1	0.71	2.4
COc1ccc(-c2cc(C(=O)O)c3c(-c4ccccc4)[nH]nc3n2)c(OC)c1	x	2.2
CSc1cccc(NC(=O)NCc2c(C)nn(-c3ccccc3)c2-n2cccc2)c1	x	-0.11
O=C(Cn1nc(C(F)(F)F)c2c1CCCC2)N1CCOCC1	1.7	x

# Next section
Structure	CDC25B CDK2 inh	TAR Tat displ
CC(C)c1ccc(C(=O)CC2(O)C(=O)Nc3ccc(Cl)cc32)cc1 (configuration not stated)	-0.18	0.75
COc1ccc(/C=C/c2nn3c(Cn4nnc5ccccc54)nnc3s2)cc1	-0.04	1.7
COCCn1c(C2CC(=O)N(c3cccc(Cl)c3)C2)nc2ccccc21 (configuration not stated)	-1.7	0.87
Cc1ccc(C(=O)O)cc1-n1cccc1	0.73	-0.19
Cc1nn(C(C)C(=O)NC2CCCc3ccccc32)c(=O)c2c1sc1ccccc12 (configuration not stated)	-1.2	0.69
Cc1cccc(N2CCN([C@H]3CS(=O)(=O)C[C@@H]3S(=O)(=O)c3ccc(Cl)cc3)CC2)c1C	-1.6	-0.95
CC1=C(C(=O)OCC(C)C)C(c2ccc(O)cc2)C2=C(CC(c3cccs3)CC2=O)N1 (configuration not stated)	-2.4	1.2
O=C(Nc1ccc(OC(F)(F)F)cc1Br)c1cnccn1	-1.9	x
CC(CCc1ccco1)NC(=O)Nc1cn(C)c(=O)c2ccccc12 (configuration not stated)	x	-1.3
CCN1CCN(C(=O)Cn2cnc3sc(C)c(S(=O)(=O)N4CC(C)CC(C)C4)c3c2=O)CC1 (configuration not stated)	-0.53	x
CC(C)NS(=O)(=O)c1ccc2nc(NC(=O)C3CC4C=CC3C4)sc2c1 (configuration not stated)	x	-0.13
c1cc2c(cc1-c1csc(-c3ccc4c(c3)OCCO4)n1)OCCCO2	0.29	x

# A portion from the list above, for reference:
Structure	CDC25B CDK2 inh	TAR Tat displ
CC(C)c1ccc(C(=O)CC2(O)C(=O)Nc3ccc(Cl)cc32)cc1 (configuration not stated)	-0.18	0.75
COc1ccc(/C=C/c2nn3c(Cn4nnc5ccccc54)nnc3s2)cc1	-0.04	1.7
COCCn1c(C2CC(=O)N(c3cccc(Cl)c3)C2)nc2ccccc21 (configuration not stated)	-1.7	0.87
Cc1ccc(C(=O)O)cc1-n1cccc1	0.73	-0.19
Cc1nn(C(C)C(=O)NC2CCCc3ccccc32)c(=O)c2c1sc1ccccc12 (configuration not stated)	-1.2	0.69
Cc1cccc(N2CCN([C@H]3CS(=O)(=O)C[C@@H]3S(=O)(=O)c3ccc(Cl)cc3)CC2)c1C	-1.6	-0.95

# Remaining list, next part
Structure	CDC25B CDK2 inh	TAR Tat displ
CCCNC(=O)NC1=C(C#N)C(C)(C)Cc2ccccc21	0.86	1.1
Cc1cc(CNC(=O)NCC(C)C)c(C)n1-c1ccc(Cl)cc1	-1.3	1.4
CCCc1nc2sc3c(OCC)ncnc3c2c2c1COC(C)(C)C2	0.03	-0.2
COC(=O)c1sc2ccccc2c1S(=O)(=O)Nc1ccccc1OC	x	-1.1
Cc1ccccc1Cn1c(=O)n(Cc2ccco2)c(=O)c2oc3ccccc3c21	x	1.2
C=CCn1c(SCC(=O)OCC)nc2sc3c(c2c1=O)CC(C)(C)SC3	-0.13	x
c1ccc2c(c1)c(N1CCN(C3CCCCC3)CC1)nn1nnnc21	x	-0.06
O=C(CN1C(=O)c2ccccc2C1=O)N1CCN=C1c1ccccc1	-0.76	x
O=C1c2cccnc2C(=O)N1CCc1ccc(S(=O)(=O)N2CCc3ccccc32)cc1	x	0.08
O=C(Nc1ccc(Cl)cc1)NC(c1ccccc1)c1nnc(-c2ccccc2)o1 (configuration not stated)	x	1.2
CSc1nc(-c2ccccc2)c(C#N)c(N2CCN(C)CC2)n1	-1.2	0.68
O=C(CC1(O)C(=O)N(CCc2ccccc2)c2ccccc21)c1ccc2c(c1)OCCO2 (configuration not stated)	-0.95	x
CCc1nnc2sc(Cc3ccccc3)nn12	-1.2	-0.84
O=C(CCc1nc(-c2ccccn2)no1)NCc1ccco1	-0.8	1.7
